# rRNA inh HTS: inhibits bacterial ribosomal RNA function over humanized ribosomes; 350,000 compounds, 1.6% hits; AID 720706; GFP signal change (wild-type ribosome), % (concentration not given with the values); E. coli WT GFP vs humanized-ribosome RFP mutants, fluorescence, 24 h; active compounds read low; DMSO median 0, no signal -100;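 active = significant combined selectivity score with lowered wild-type GFP, culture density cut under 30%, mutant RFP and density less affected; inactive = any of these conditions unmet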; note: one replicate is shown; some compounds called inactive have numbers as strong as hits
# LANA-H2A inh: blocks KSHV LANA binding to histone H2A/H2B; inhibition, % (test concentration not listed); cell-free LANA-H2A/H2B peptide, fluorescence polarization; 320,000 compounds, 0.6% hits; Q9QR71; AID 2629; in the data active = inhibition mostly above about 10%, no sharp cut-off; inactive = mostly below about 6.7%;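 note: stock transfer was 7.5 nL into about 10 µL; 0% = median of vehicle wells and 100% = median of positive control wells; one replicate is shown; the record names a cut of 25% in any replicate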
# Target sequence (Q9QR71 whole entry, looked up): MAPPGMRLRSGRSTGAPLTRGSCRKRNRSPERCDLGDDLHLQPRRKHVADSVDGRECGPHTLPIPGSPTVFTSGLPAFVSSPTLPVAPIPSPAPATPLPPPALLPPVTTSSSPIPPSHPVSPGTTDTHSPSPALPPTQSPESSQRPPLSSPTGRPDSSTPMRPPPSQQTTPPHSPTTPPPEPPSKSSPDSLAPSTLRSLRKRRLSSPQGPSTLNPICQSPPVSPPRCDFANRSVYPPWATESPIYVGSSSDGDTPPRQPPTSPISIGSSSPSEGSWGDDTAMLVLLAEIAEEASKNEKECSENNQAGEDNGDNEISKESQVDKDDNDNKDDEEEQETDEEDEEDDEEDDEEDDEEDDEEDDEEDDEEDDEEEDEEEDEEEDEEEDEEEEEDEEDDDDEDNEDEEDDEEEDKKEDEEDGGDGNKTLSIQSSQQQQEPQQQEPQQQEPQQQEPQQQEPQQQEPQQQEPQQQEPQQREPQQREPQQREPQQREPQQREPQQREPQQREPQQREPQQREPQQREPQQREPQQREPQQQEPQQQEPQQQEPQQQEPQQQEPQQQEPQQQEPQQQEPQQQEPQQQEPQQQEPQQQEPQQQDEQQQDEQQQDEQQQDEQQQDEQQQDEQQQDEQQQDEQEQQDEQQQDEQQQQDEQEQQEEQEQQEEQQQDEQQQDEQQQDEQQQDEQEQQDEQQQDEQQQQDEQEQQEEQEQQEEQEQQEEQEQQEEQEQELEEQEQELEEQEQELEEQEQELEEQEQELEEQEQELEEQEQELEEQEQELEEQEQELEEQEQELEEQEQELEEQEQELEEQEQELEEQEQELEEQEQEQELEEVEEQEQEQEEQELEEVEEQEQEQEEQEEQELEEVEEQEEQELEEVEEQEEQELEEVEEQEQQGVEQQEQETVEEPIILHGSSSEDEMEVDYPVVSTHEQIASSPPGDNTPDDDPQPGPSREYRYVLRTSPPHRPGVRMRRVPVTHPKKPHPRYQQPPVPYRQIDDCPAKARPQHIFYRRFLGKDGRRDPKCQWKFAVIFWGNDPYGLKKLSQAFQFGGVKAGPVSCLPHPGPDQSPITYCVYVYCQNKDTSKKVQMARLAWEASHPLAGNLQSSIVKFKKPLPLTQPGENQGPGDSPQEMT
# Calb FLC: affects C. albicans growth with fluconazole; 300,000 compounds, 0.57% hits; growth inhibition, % (no concentration beside the values); C. albicans CaCi-2 (fluconazole-resistant clinical isolate) + fluconazole, Alamar Blue growth, 48 h;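 active = most replicates above 75%; inconclusive = exactly half above 75%; inactive = most below 75%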;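 note: all wells also contain fluconazole at 8 µg/ml as a sub-toxic cotreatment; 0% = median of DMSO wells and 100% = median of geldanamycin control wells; wells of about 8 µL received 7.5 nL stock; the first replicate is given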
# Beta cell apopt: blocks beta cell apoptosis | INS-1E cytokine-induced death, ATP luminescence, 48 h; percent of positive-control rescue, neutral wells zero | protection from apoptosis, % (test concentration not listed) | 300,000 compounds, 0.8% hits;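 active = all replicates at 75% or more, or half of them and the mean; inconclusive = half reach 75% but not the mean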;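 note: 0% = cytokine-treated negative control wells and 100% = positive control rescue; higher means more ATP so stronger rescue from cytokine killing; wells of about 40 µL received 100 nL stock; the first replicate is given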
# T cruzi inh: blocks replication of Trypanosoma cruzi; T. cruzi beta-gal in NIH3T3, luminescence, 90 h; inhibition, % (no concentration beside the values); 300,000 compounds, 1.4% hits; AID 1885;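 active = mean inhibition across valid replicates above about 55%, limit read from the data; inconclusive = mean below that limit but half or more replicates reach it; inactive = mean below it, under half of replicates reach it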;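 note: signal also drops with host cell toxicity which is not excluded here; 0% = plate median of DMSO wells and 100% = zero luminescence signal; higher percent means less beta-gal luminescence so fewer parasites; stock transfer was 50 nL into about 50 µL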
# ALR inh: blocks human ALR sulfhydryl oxidase activity | purified ALR, DTT oxidation, H2O2 HRP-luminol luminescence | P55789 | inhibition, % (no concentration beside the values) | AID 485317 | 290,000 compounds, 3.8% hits;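 active = mean and each replicate at 75% or more; inconclusive = only one of the two met; inactive = neither met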;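 note: stock transfer was 7.5 nL into about 7.5 µL; 0% = neutral wells and 100% = wells with inactivated enzyme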
# B2AR ag: human beta-2 adrenergic receptor agonism by FAP | P07550 | Am2.2-beta2AR cells, FAP receptor internalization, flow cytometry; reference of the scale not given here | response, % (test concentration not listed) | 340,000 compounds, 0.43% hits;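 active = response above a set limit, near 3 SD of response in nonfluorescent compounds, cut at about 42% in these data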;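 note: stock transfer was 100 nL into about 11 µL; a reference agonist was the positive control; negative values mostly stem from fluorescent compounds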
# A1 inh: inhibitors of the anti-apoptotic protein A1, read as caspase activation; MEF A1-2A-BIM cells, Caspase-Glo 3/7 luminescence, 3 h; percent of clofoctol response, vehicle zero; caspase activation, % (no concentration beside the values); 330,000 compounds, 0.066% hits;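 active = over half of replicate activation scores above 10%, or exactly half above 10 with the replicate mean above 10; inconclusive = replicate mean below 10 yet half the replicates above 10; inactive = over half of replicates below 10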;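 note: wells of about 30 µL received 50 nL stock; many hits fall short of the cut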
# rRNA inh HTS OD600: further read-out of rRNA inh HTS, marked with its call; OD600 change, %; measured here: OD600 growth;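 optical density of the mix in the first replicate; 0 = DMSO median and -100 = no signal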
# rRNA inh HTS RFP: further read-out of rRNA inh HTS, marked with its call; RFP signal change, %; measured here: RFP humanized mutant strains;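 first replicate; 0 = DMSO median and -100 = no signal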
# The depositor's hits bear a star; ? = inconclusive; . = no result given.
SMILES,rRNA inh HTS,rRNA inh HTS OD600,rRNA inh HTS RFP,LANA-H2A inh,Calb FLC,Beta cell apopt,T cruzi inh,ALR inh,B2AR ag,A1 inh
CCOc1ccc(C(=O)NC(=S)Nc2ccc(NC(=O)CC)cc2)cc1[N+](=O)[O-],.,.,.,-4.2,33.5,-2.7,5.9,22.6,-7.5,-1.1
CCOc1ccc(CN(C)C(=O)c2cccnc2OCC)cc1OC,-1.1,0.0,2.4,5.2,-5.1,-23.0,-7.2,-11.2,0.9,0.2
COc1ccccc1Nc1nc(-c2c(C)nc3ncccn23)cs1,1.4,-4.0,-2.8,.,25.3,.,0.6,.,-15.8,.
Cc1ccc2c(c1)N(C(=O)CCC(=O)NC1CCN(Cc3ccccc3)CC1)CC(C)O2 (stereo not drawn),8.9,10.6,1.9,4.3,-5.7,-4.0,24.6,1.1,-1.9,0.2
Cn1c(=O)c2c(ncn2CC(=O)N/N=C/C=C/c2ccco2)n(C)c1=O,18.3,4.6,7.0,2.4,-7.2,-4.3,-13.5,-5.7,2.9,0.8
Cc1ccc(-n2ncc(C(=O)N3CCc4ccccc4C3)c2NC(=O)c2ccco2)cc1C,.,.,.,3.5,1.7,.,1.0,.,3.5,0.6
Cc1nc(SCc2ccccc2F)c2cnn(-c3ccccc3)c2n1,.,.,.,-2.8,6.0,5.9,7.5,-3.7,.,-0.5
N#CC(=C1CCCC1)c1nc(-c2ccccc2)cs1,.,.,.,0.3,-8.3,1.2,1.1,-11.5,4.3,-3.1
O=C1C2CCCN2C(c2ccccc2)N1c1cccc(Cl)c1 (stereo not drawn),6.8,19.8,-1.9,-6.5,-6.4,-3.6,2.8,12.5,-0.2,0.0
COC(=O)c1ccc(COc2ccc3ccc(=O)oc3c2)o1,10.9,15.3,3.2,5.0,8.0,-8.1,-5.8,-6.0,11.0,0.3
CCOc1ccc(N2CC(C(=O)NCCN3C(=O)S/C(=C\c4ccc(OC)cc4)C3=O)CC2=O)cc1 (stereo not drawn),-0.5,-3.8,2.3,1.7,2.8,-9.4,-7.0,-3.5,-3.6,-1.1
COCCNC(=O)C(OC(=O)CC1Sc2ccccc2NC1=O)c1ccccc1 (stereo not drawn),.,.,.,-1.2,1.4,-7.9,-20.5,0.6,-2.6,1.2
CC(=O)c1cccc(NC(=O)C23CC4CC(C2)CC(n2cncn2)(C4)C3)c1,.,.,.,6.5,2.2,-6.7,-9.4,-8.9,-6.7,0.8
CCC1Oc2ccccc2N(CC(=O)NCCCN2CCN(Cc3ccccc3)CC2)C1=O (stereo not drawn),11.9,-0.2,3.4,-5.2,-0.5,0.1,-2.9,-11.4,4.1,0.5
CCc1cc(=O)oc2cc(OCC(=O)NCC3CCC(C(=O)O)CC3)ccc12 (stereo not drawn),7.1,6.9,0.9,-7.6,-4.2,0.2,-8.1,-0.4,10.9,1.1
CN(C)S(=O)(=O)c1ccc(C(=O)Nc2nnc(-c3ccco3)o2)cc1,-6.5,-6.3,-4.0,0.3,28.4,-2.1,-5.3,-1.2,-1.3,1.3
Cn1cc(CCC(=O)N2CCCC(N3CCN(c4ccccc4F)CC3)C2)cn1 (stereo not drawn),5.2,16.1,1.2,-2.4,46.7,5.2,3.9,3.9,0.2,0.9
Cc1cccc(C)c1NC(=O)CNC(=O)C(NC(=O)c1ccc(C(C)(C)C)cc1)C(C)C (stereo not drawn),.,.,.,-2.6,-0.1,-2.4,-14.6,-16.0,-6.8,0.0
CC(C)(C)c1cc(P(=O)(c2ccccc2)c2ccccc2)ccc1O,10.5,3.1,2.1,-0.4,-5.6,8.1,0.3,3.2,3.3,0.5
O=C(CNC(=O)c1ccc(Br)cc1)NCc1cccnc1,-12.2,-8.3,2.2,0.6,5.7,-2.8,-19.7,-7.0,7.6,0.0
CC1(C)Cc2c(cnn2-c2ccc(F)cc2)C(NC(=O)CCn2cncn2)C1 (stereo not drawn),11.6,19.1,0.5,5.0,9.5,-4.9,-2.5,0.0,5.4,1.8
CCC(c1c(C)[nH]oc1=O)c1c(C)[nH]oc1=O,.,.,.,-5.7,-2.6,-1.9,-3.4,1.8,3.4,0.5
CCC(Sc1ccc2nnc(-c3ccc(OC)c(OC)c3)n2n1)C(=O)O (stereo not drawn),5.8,2.3,1.5,0.8,7.7,-5.2,-1.6,-6.8,3.0,0.1
CC1CC(NS(=O)(=O)c2cccs2)CC(C)(C)C1 (stereo not drawn),-5.7,-3.7,-1.5,-1.5,36.5,-1.5,7.4,0.9,-0.6,0.2
COc1ccc(OC)c(S(=O)(=O)Nc2ccccc2F)c1,-2.3,-0.4,-8.9,3.8,-1.7,8.5,-6.8,-3.2,4.0,-0.1
O=C(Nc1ccc(S(=O)(=O)Nc2cnc3ccccc3n2)cc1)c1ccc([N+](=O)[O-])cc1Cl,-22.1,-16.4,-15.0,2.9,-1.0,.,21.6,-14.1,5.2,0.4
COc1ccccc1CNCC(O)Cn1c2ccccc2c2ccccc21 (stereo not drawn),.,.,.,-6.7,?,102.6*,46.2,-19.0,54.9*,0.9
CCOc1cc(C(=O)Nc2cc(=O)n(C)c(=O)n2C)cc(OCC)c1OCC,.,.,.,-6.3,-0.3,2.6,-20.2,-0.6,-7.4,-0.8
Cc1cccc(C)c1OCCN1CCOCC1,6.7,9.1,3.7,-4.6,6.3,-1.4,0.2,-0.6,-2.1,0.7
CCCc1ccc(NS(=O)(=O)c2c(C)oc(C)c2C(=O)OC)cc1,-1.9,-3.8,-1.5,-3.2,3.6,-1.4,10.7,-19.6,6.3,0.2
CN1/C(=C/C2CC(=O)NC2=O)C(C)(C)c2ccccc21 (stereo not drawn),.,.,.,-3.1,.,2.8,.,98.4*,3.0,0.2
CCS(=O)(=O)N1CCN(c2ccc(C(=O)N3CCOCC3)cc2[N+](=O)[O-])CC1,4.4,-1.4,-6.3,-0.4,8.0,-14.4,-3.0,-1.4,1.9,-0.4
COc1ccc(Br)cc1/C=N/n1c(COc2ccccc2)n[nH]c1=S,0.8,13.8,-0.9,3.3,-2.0,.,-8.0,.,7.3,0.9
Cc1ccc(-c2nnn(CC(=O)N(CC(=O)NC3CCCCC3)c3ccc(F)c(Cl)c3)n2)o1,15.9,16.8,2.1,1.7,-9.2,7.2,16.6,-6.9,10.9,1.3
Cc1c(NS(=O)(=O)c2ccc3[nH]c(=O)[nH]c3c2)c(=O)n(-c2ccccc2)n1C,.,.,.,2.4,-21.9,0.0,-37.1,4.3,-7.8,0.3
COC(=O)c1oc2c(c1C)C(=O)CC(C)(C)C2,9.7,6.3,-0.4,2.8,-4.6,-4.2,-6.7,-2.6,4.9,0.3
O=C(COC(=O)c1c2c(nc3ccccc13)/C(=C\c1cccs1)CCC2)Nc1ccccc1Cl,6.8,1.0,-5.5,0.7,-7.7,0.7,54.9*,-2.0,-7.7,-0.1
Cc1cnccc1CN(C)Cc1cn(C)nc1-c1ccc(Oc2ccccc2)cc1,-57.2,-79.2,-18.4,2.1,3.3,6.3,69.5*,-2.6,-7.3,0.2
CCOc1cccnc1Sc1ccccc1,6.7,11.4,-0.6,-3.1,-2.7,-8.4,2.9,-4.7,-7.0,1.1
COc1ccc(Cl)cc1C(=O)NCc1cnn(C)c1C,.,.,.,5.0,11.5,-9.2,1.7,.,-2.0,0.3
Cc1ccc(OCCC(=O)OCC(=O)Nc2ccccc2)cc1,-6.4,0.6,4.3,-0.5,-3.8,-8.8,-6.3,4.9,7.9,0.6
COc1ccc(S(=O)(=O)N2CCSC2c2ccccc2)cc1 (stereo not drawn),.,.,.,-1.4,15.8,-5.4,9.6,1.7,-7.6,-1.2
CC1(C)[C@@H](O)CC[C@]2(C)C3C(O)C=C4[C@H]5C[C@@](C)(CO)CC[C@]5(C)CC[C@]4(C)[C@]3(C)CC[C@@H]12 (stereo partly drawn),-0.4,5.0,7.2,2.4,7.2,-0.7,-7.5,.,4.1,0.9
COc1ccc(Cl)cc1C(=O)OCC(=O)N(CC(C)C)c1c(N)n(Cc2ccccc2)c(=O)[nH]c1=O,7.8,13.0,0.6,0.9,17.2,-13.1,6.6,-19.3,-11.1,-0.2
CC(C)(C)NC(=S)NCc1ccc2c(c1)OCO2,.,.,.,-0.5,-12.9,2.7,-3.4,-4.3,6.2,-0.9
Cc1ccc(-n2c(SCc3nc4ccccc4[nH]3)nnc2-c2ccncc2)cc1,3.6,-4.7,1.6,1.9,?,0.0,-6.8,-3.5,-13.2,0.4
CCNC(=O)NC1(C(=O)N2CCC(Cc3ccccc3)CC2)CCCCC1,27.8,18.5,5.6,0.4,10.3,12.5,-14.8,-1.8,0.0,0.4
CN1CCN(c2nc3c(c(=O)n(C)c(=O)n3C)n2Cc2cccc(Br)c2)CC1,16.2,8.5,3.6,-0.5,11.0,2.1,6.3,-11.7,-1.9,-0.2
COC(=O)c1cc(NC(=O)CN2CCN(C(C)=O)CC2)cc(C(=O)OC)c1,5.3,3.7,-8.3,2.4,-10.5,-2.1,-6.1,-8.5,-3.2,0.3
Cc1cccc(CNc2ncc(-c3cccc([N+](=O)[O-])c3)n2C)c1,11.9,6.5,0.6,-8.4,-1.8,-7.6,2.9,.,5.0,0.0

# (list continues)
SMILES,rRNA inh HTS,rRNA inh HTS OD600,rRNA inh HTS RFP,LANA-H2A inh,Calb FLC,Beta cell apopt,T cruzi inh,ALR inh,B2AR ag,A1 inh
Cc1ccccc1NC(=O)CCS(=O)(=O)c1ccc(Br)s1,.,.,.,-1.4,3.0,2.9,-2.3,1.0,-2.8,1.3
COC(=O)c1cc2ccccc2n1S(=O)(=O)c1ccccc1,-31.5*,-11.7*,-2.9*,0.2,8.9,-4.1,3.2,.,0.1,1.2
COc1cccc(C(C(=O)NC2CCCC2)N(CCC(C)C)C(=O)CCC(=O)Nc2cc(C)on2)c1 (stereo not drawn),1.8,13.0,-0.8,-0.6,4.1,2.5,11.7,.,-10.8,0.1
C=CCN1C=CC=C/C1=C1\SC(=S)N(C)C1=O,13.0,8.4,3.5,-4.1,-7.2,.,8.8,99.2*,-4.5,0.7
CCCC(=O)Nc1ccc(C(=O)NCC(=O)OCC)cc1,.,.,.,2.4,-5.4,-10.2,-19.4,-4.1,-3.1,0.0
Oc1ccccc1N1CCN(CC(O)COC2CCCc3ccccc32)CC1 (stereo not drawn),3.9,-2.2,3.2,-1.5,0.3,-8.8,-10.3,67.5,-5.9,1.3

# Not a retest: an excerpt of the list.
SMILES,rRNA inh HTS,rRNA inh HTS OD600,rRNA inh HTS RFP,LANA-H2A inh,Calb FLC,Beta cell apopt,T cruzi inh,ALR inh,B2AR ag,A1 inh
CCCC(=O)Nc1ccc(C(=O)NCC(=O)OCC)cc1,.,.,.,2.4,-5.4,-10.2,-19.4,-4.1,-3.1,0.0
Oc1ccccc1N1CCN(CC(O)COC2CCCc3ccccc32)CC1 (stereo not drawn),3.9,-2.2,3.2,-1.5,0.3,-8.8,-10.3,67.5,-5.9,1.3

# Bioassay records from PubChem BioAssay.

# An excerpt (hit frequency here may not be typical).
